Assay outcomes as filed in PubChem.
Vaccinia pol inh = inhibitors of vaccinia virus processive DNA synthesis (E9 polymerase); 46,000 compounds, 0.94% hits; normalized absorbance, % (test concentration not listed); in vitro processive DNA synthesis, absorbance read-out; active compounds read low; some inactives read as strong as hits; AID 493162;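 active = replicate mean up to 90% and picked by the depositor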;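 note: 100% = median of the test wells of a plate; 100 nL library stock went into each well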
* hit, by the source's call. Some of the compounds tested; rates above refer to the full screens.

SMILES | Vaccinia pol inh
O=C1NC(=Nc2cccc(C(F)(F)F)c2)S/C1=C/c1cccs1 | 75.8
O=C(c1ccccc1)c1cc[n+](Cc2ccccn2)cc1 | 100.0
CC1CCCCN1CCNC(=O)c1cccn2c(=O)c3c4c(sc3nc12)CCCC4 (stereo unspecified) | 89.4
COc1cccc2c1OC1(C)C(C(=O)Nc3ccc(C)cc3C)C2NC(=S)N1c1ccc(F)cc1 (stereo unspecified) | 100.6
COC(=O)c1cc2c(C(F)(F)F)nn(C)c2s1 | 115.0
CCc1cccc(CC)c1N(COC)C(=O)Cn1cnc2ccccc21 | 99.7
Cc1noc2nc(-c3ccccc3)cc(C(F)(F)F)c12 | 94.9
O=C(O)COCC(=O)Nc1cccc(C(=O)O)c1 | 109.0
Cc1ccc(/C=C/C(=O)O)cc1S(=O)(=O)NCc1cccnc1 | 100.7
c1ccc(CNc2cccc3nonc23)cc1 | 93.2
Cc1c(C)c(C)c(S(=O)(=O)N=C(N)N)c(C)c1C | 92.7
CC1CCN(c2c(S(=O)(=O)c3ccccc3)cnc3ccccc23)CC1 | 97.9
CSc1nnc(NC(=O)COc2ccc(Cl)cc2Cl)s1 | 101.0
CCn1c(=O)c(=O)[nH]c2c(=O)oc3ccccc3c21 | 90.6
O=C(CSc1nnc(CNC(=O)c2cccs2)o1)NC1CCCC1 | 96.3
CC(C)(C)c1csc(NC(=O)/C=C/c2ccccc2)n1 | 94.6
CC(=O)NS(=O)(=O)c1ccc(NC(=O)C2CCCC2)cc1 | 98.4
COc1ccc(/C=C2\OC(=S)N(C)C2=O)cc1 | 100.5
Cc1nnc(NC(=O)CSC2CCCCC2)s1 | 101.2
O=C(CSc1ccccn1)Nc1cc(Cl)cc(Cl)c1 | 80.8
O=C(COc1ccccc1)Nc1ccccc1N1CCCCC1 | 96.9
N#CC(O[C@@H]1O[C@H](CO[C@@H]2O[C@H](CO)[C@@H](O)[C@H](O)[C@H]2O)[C@@H](O)[C@H](O)[C@H]1O)c1ccccc1 (stereo partly specified) | 101.1
COc1ccc(S(=O)(=O)N2CCCCC2C)cc1 (stereo unspecified) | 100.1
CCOC(=O)c1ccc(Nc2c(C(=O)OCC)cnc3ccccc23)cc1 | 99.4
O=C(O)C1C2CC3CC(C2)CC1(n1ncc(N2CCOCC2)c(Cl)c1=O)C3 (stereo unspecified) | 105.4
CCC(C)NC(=O)c1ccc2c(c1)ncn2-c1ccc(OC)cc1 (stereo unspecified) | 101.0
CCN(CC)C(=O)c1cn(-c2ccccc2)nc1C12CC3CC(CC(C3)C1)C2 | 100.1
COc1ccc(Nc2nc(-c3cccs3)cs2)cc1 | 106.3
COC(=O)Cn1cc2c(n1)-c1c(oc(C(=O)N3CCCC3)c1C)CC2 | 93.8
O=S(=O)(c1ccc(Cl)cc1)N1CCCC2CCCCC21 (stereo unspecified) | 100.7
CC1CCN(C(=O)c2cccn3c(=O)c4c5c(sc4nc23)CCCC5)CC1 | 98.8
CCOC(=O)c1sc(-c2ccccc2)nc1OC(=O)c1ccc(C(F)(F)F)cc1 | 99.7
COc1ccc(C2CC(=O)C=C(Nc3ccccc3)C2)cc1 (stereo unspecified) | 104.4
CC1C(=O)C2(CCCCC2)C(=O)OC1c1ccccc1 (stereo unspecified) | 100.2
Cc1oc(-c2ccccc2Cl)nc1CS(=O)(=O)CC(=O)NCCN1CCOCC1 | 90.6
CCOC(=O)c1cnc2c(cnn2C)c1Cl | 101.9
Clc1ccccc1CN1CCN(/N=C/C=C\c2ccco2)CC1 | 99.9
O=C(Cc1ccccc1)SC1=NCCS1 | 90.7
CC(C)(C)c1cc(NC(=O)Nc2ccccc2)no1 | 102.5
O=c1oc2ccccc2n1CNc1cccc(Cl)c1 | 99.6

By substructure: those above containing a COOH group.
SMILES | Vaccinia pol inh
O=C(O)COCC(=O)Nc1cccc(C(=O)O)c1 | 109.0
Cc1ccc(/C=C/C(=O)O)cc1S(=O)(=O)NCc1cccnc1 | 100.7
O=C(O)C1C2CC3CC(C2)CC1(n1ncc(N2CCOCC2)c(Cl)c1=O)C3 (stereo unspecified) | 105.4

Going on with the list.
SMILES | Vaccinia pol inh
Cn1c(=Nc2ccccc2C(=O)O)sc2ccccc21 | 98.8
Cc1cc2ncc(-n3cncn3)c(-c3ccccc3)n2n1 | 101.4
CCc1cc2c(-n3nc(C)cc3C)ncnc2s1 | 96.1
O=C(Cc1ccccc1)Nc1c2c(nn1-c1ccc(Cl)cc1)CSC2 | 100.0
COC(=O)CNC(c1ccccc1)c1cc(Br)ccc1N=Cc1ccccc1O (stereo unspecified) | 100.3
CCOC(=O)C1CCCN(C(=O)CCc2ccccc2)C1 (stereo unspecified) | 94.0
COc1ccc(/C=C2\SC(=O)N(C)C2=O)cc1 | 86.9
Cc1ccc(CS(=O)(=O)c2ncn[nH]2)cc1 | 119.8
Cc1nccc2[nH]c(=O)c(C(=O)NCc3ccc(Cl)cc3)cc12 | 101.2
N#Cc1c(F)cccc1NC(=O)CN1CCCCC1 | 83.2
Clc1ccc(CSc2cnc3ccccc3n2)cc1 | 104.2
CN(C)c1ccc(C2CC(C)(N3CCCC3)Oc3cc4c(cc32)OCO4)cc1 (stereo unspecified) | 99.4
O=C(CSC1=Nc2ccccc2C2=NC(CC(=O)NCc3ccco3)C(=O)N12)NCc1ccco1 (stereo unspecified) | 90.6
CS(=O)(=O)N1CCN=C1SCc1ccc(Cl)c(Cl)c1 | 56.1*
O=C(CC12CC3CC(CC(C3)C1)C2)N1CCC(O)(c2ccc(Cl)cc2)CC1 | 95.1
Nc1ccn(C2O[C@H](CO)[C@@H](O)[C@@H]2O)c(=O)n1 (stereo partly specified) | 99.6
CNCCc1c(-c2ccccc2)n(-c2ccccc2)c2ccccc12 | 100.1
CCc1ccc(C2=NNC(=O)CC2)cc1 | 97.7
CC1Cc2nc(SCC(=O)NCc3ccco3)n(Cc3ccccc3)c(=O)c2S1 (stereo unspecified) | 91.9
OC(Cc1ccccc1)(Cc1ccccc1)C1CN2CCC1CC2 (stereo unspecified) | 93.2
O=C(NCc1ccccc1)C1CC1 | 100.1
O=S1(=O)CCC(n2nnnc2-c2ccccc2)C1 (stereo unspecified) | 104.6
Cc1nc(N)[nH]c(=O)c1CC(=O)O | 99.8
N#Cc1ccccc1NC(=O)CCCC(=O)Nc1ccccc1C#N | 101.3
Cc1ccc(-n2c(C)nc3ccccc3c2=O)cc1 | 100.4
CN1CC(=O)N/C1=N/C(=O)Nc1ccc2c(c1)N(C)C(=O)CS2 | 103.2
CCC(=O)Oc1ccc(C2CC(=O)c3c(ccc4ccccc34)N2)cc1OC (stereo unspecified) | 100.2
CC1CCN(C(=O)CSc2nc3cc4c(cc3c(=O)n2CCC2=CCCCC2)OCO4)CC1 | 99.0
O=C(Nc1nnc(-c2ccccc2Cl)s1)C1CC1 | 100.3
O=C1NC(=S)S/C1=C/c1ccc(-c2cccc(C(F)(F)F)c2)o1 | 79.5*
CC1C(=O)C(C)C(c2ccc(Br)cc2)NC1c1ccc(Br)cc1 (stereo unspecified) | 101.7
CN1CCN(c2cc(-c3cccnc3)nc3ccccc23)CC1 | 89.7
NC(=O)CCCCC1CCSS1 (stereo unspecified) | 102.9
O=C(NC1CCCC1)c1cc(F)c(F)cc1Cl | 102.0
c1ccc(CSc2nc3ccccc3n2Cc2ccccn2)cc1 | 99.7
COc1ccc(Cl)cc1NS(C)(=O)=O | 100.7
COCc1cc(=O)[nH]c(-c2ccccc2)n1 | 100.7
CCN(CC)CCSc1nc2ccccc2c(=S)n1-c1ccccc1 | 99.5
Cc1cc(C)nc(NS(=O)(=O)c2ccc(N)cc2)n1 | 102.5
CCOc1ccc2c(c1)ncn2Cc1ccccc1 | 95.7
Cc1ccn2cc(CNS(=O)(=O)N(C)C)nc2c1 | 100.0
O=C1C2C(c3ccccc3)C=CC(c3ccccc3)C2C(=O)N1C1CCCCC1 (stereo unspecified) | 99.9
O/N=C/C(=N/O)c1ccccc1 | 98.0
COc1ccc(-c2nc(N(C)c3ccccc3)[nH]c(=O)c2C#N)cc1 | 102.8
Cc1nnc(NC2CCCC2)s1 | 92.1
CC(C)c1ccc(-n2cccc2/C=C2/C(=N)N3C=CSC3=NC2=O)cc1 | 90.7
COC(=O)N1CCC(C(=O)O)CC1 | 89.3
CCc1nc2nc(C)cc(NCCc3ccccc3)n2n1 | 86.8
CCc1ccc(C2=CC(=O)C=CC2=O)cc1 | 101.4
CN(Cc1cc2ccccc2[nH]c1=O)S(C)(=O)=O | 101.9
C/C(=N\O)C(C)(C)Nc1cc(C(F)(F)F)cc(C(F)(F)F)c1 | 88.5
CCCCC[C@H](O)/C=C/[C@@H]1[C@@H](C/C=C\CCCC(=O)O)[C@H](O)C[C@H]1O | 100.3
COc1cc(C(=O)Nc2ccc3nc(N4CCN(C)CC4)cc(C)c3c2)cc(OC)c1OC | 88.2
O=C(CSCc1cccc(Br)c1)Nc1ccc2ccccc2c1 | 98.2
CCSc1nnc(NC(=O)C23CC4CC(CC(C4)C2)C3)s1 | 89.9
O=C(O)c1ccccc1C(=O)NCC1COc2ccccc2O1 (stereo unspecified) | 102.4
Cc1nc2ccccc2n1CC(=O)OCC(=O)c1cccc(Cl)c1 | 105.2
O=C(c1cccnc1)N(c1ccc(F)cc1)c1nc2ccccc2s1 | 102.0
Cc1cc(C)c(O)c(C2(O)C(=O)c3ccccc3C2=O)c1 | 103.9
CCCCC(=O)Nc1c(C(=O)OCC)[nH]c2ccccc12 | 101.9

In another format: 2 of the compounds above
Molecule	Vaccinia pol inh
CC(C)(C)c1csc(NC(=O)/C=C/c2ccccc2)n1	94.6
CC(=O)NS(=O)(=O)c1ccc(NC(=O)C2CCCC2)cc1	98.4

Quoted at random: 4 compounds from above
SMILES | Vaccinia pol inh
CCCCC(=O)Nc1c(C(=O)OCC)[nH]c2ccccc12 | 101.9
CC1C(=O)C2(CCCCC2)C(=O)OC1c1ccccc1 (stereo unspecified) | 100.2
C/C(=N\O)C(C)(C)Nc1cc(C(F)(F)F)cc(C(F)(F)F)c1 | 88.5
CCN(CC)CCSc1nc2ccccc2c(=S)n1-c1ccccc1 | 99.5

(listing goes on)
SMILES | Vaccinia pol inh
CCCS(=O)(=O)c1c(S(=O)(=O)CCC)c2ccccn2c1C(=O)OC | 98.5
O=C1CCCC2=C1C(c1cccc(Cl)c1)C1C(=O)c3ccccc3C1=N2 (stereo unspecified) | 100.4
N#Cc1ccc(NC(=O)c2ccccc2C(F)(F)F)cc1 | 100.6
O=C(CCc1nc(-c2ccccc2)no1)N1CCCCC1 | 94.1
CS(=O)(=O)N1N=C(c2ccc(Br)cc2)CC1c1cc2ccccc2nc1Cl (stereo unspecified) | 99.5
COC(NC(=O)c1ccccc1)(C(F)(F)F)C(F)(F)F | 109.7
O=C1CC(C(=O)NCc2ccccc2)N=C(N2CCOCC2)N1 (stereo unspecified) | 101.6
O=C(CN1CCN(c2ccccc2)CC1)N1c2ccccc2Sc2ccccc21 | 116.1
O=C(N=C1SC2CS(=O)(=O)CC2N1c1ccccc1)c1ccccc1 (stereo unspecified) | 111.8
O=C(CSc1nc2ccccc2c(=O)n1CCC(=O)N1CCCCC1)c1ccccc1 | 98.4
c1ccc(-c2nc(NC3CCCCC3)s[n+]2-c2ccccc2)cc1 | 98.4
O=C(NCCCN1CCCC1)c1csc2c1CCCCC2 | 97.9
O=C(C1CCCN(Cc2ccccc2F)C1)N1CCCCC1 (stereo unspecified) | 100.8
O=C(NCCN1CCN(c2ccccc2)CC1)c1ccc2nc3ccc(Cl)cc3c(=O)n2c1 | 102.3
COC(=O)c1scc(S(=O)(=O)C(C)(C)C)c1-n1cccc1 | 111.6
Cc1cccc(C(=O)NN)c1 | 102.8
CC1=C(C(=O)OCC(C)C)Sc2ccc(C(F)(F)F)cc2N1 | 100.5
Cc1noc(C)c1S(=O)(=O)NC(C)C | 94.1
N#Cc1cc(N)ccc1Sc1cccc(C(F)(F)F)c1 | 84.1
O=C(O)CCNCc1ccccc1 | 99.7

Exported field by field: part of the list above.
Compound: O=C1CC(C(=O)NCc2ccccc2)N=C(N2CCOCC2)N1 (stereo unspecified)
  Vaccinia pol inh = 101.6
Compound: O=C(CN1CCN(c2ccccc2)CC1)N1c2ccccc2Sc2ccccc21
  Vaccinia pol inh = 116.1

(list continues)
SMILES | Vaccinia pol inh
CCC(C(=O)NC1CCCC(C)C1C)n1nc(C)n2c(cc3sccc32)c1=O (stereo unspecified) | 98.5
CCOC(=O)C1=C(CC)NC2=C(C(=O)CCC2)C1c1ccccc1OCC (stereo unspecified) | 99.2
CC(C)(C)N1CC(OC(=O)Nc2ccccc2)C1 | 103.5
O=C(O)CSCC(=O)Nc1cc(C(F)(F)F)ccc1N1CCCC1 | 99.9
O=C1/C(=C/c2ccc(F)cc2)CS/C1=C\c1ccc(F)cc1 | 101.9
COc1ccc(C(=O)NCc2ccc(C#N)cc2)cc1OC | 106.4
COc1cccc2[nH]c(=O)c(-c3ccccc3)cc12 | 107.2
OC(CNC1CCCC1)C(F)(F)F (stereo unspecified) | 95.8
O=C(CSc1nc(-c2ccccc2)nc2c1Cc1ccccc1O2)Nc1ccccc1 | 101.4
COc1cccc(C(=O)c2ccccc2O)c1O | 100.3
Cc1nc(CSc2n[nH]c(C(C)(C)C)n2)cs1 | 101.1
O=S(=O)(c1cc(Cl)ccc1Cl)n1ccnc1 | 99.5
CCOC(=O)N1CCN(C(=O)CCn2c(=S)[nH]c3cc4c(cc3c2=O)OCO4)CC1 | 97.8
COc1ccc2c(c1)CCCN2Cn1nc(-c2ccccc2)n(-c2ccccc2)c1=S | 99.9
CNc1cc(=O)n(-c2ccccc2)c(=O)n1-c1ccccc1 | 104.1
CCCN(C(=O)c1cc2c(s1)-c1c(C)cccc1OC2)c1cccc(Cl)c1 | 102.8
Cc1cc2nn(-c3ccc(Cl)cc3)nc2cc1NC(=O)c1ccco1 | 99.4
CCCN(C(=O)COc1cc(=O)n(C)c2ccccc12)c1ccccc1C | 98.3
CC1=C(C(=O)N2CCOCC2)C(c2ccccc2F)C2=C(CC(C)(C)CC2=O)N1 (stereo unspecified) | 100.3
Cn1ccnc1S(=O)(=O)/C(C#N)=C/c1ccc2c(c1)OCO2 | 87.1
CC(=O)N1c2ccc(S(=O)(=O)N(C)CC(=O)N(C)Cc3ccccc3)cc2CC1C (stereo unspecified) | 96.5
CCC1(CCC(C)C)C(=O)NC(=O)NC1=O | 94.1
Cc1cc(C(=O)NCCCN2CCN(c3ccccc3F)CC2)n(-c2ccccc2)n1 | 100.7
